Screening data: PubChem, National Center for Advancing Translational Sciences (NCATS)
Bst PK mod: Pyruvate Kinase; actives 1.2% (n = 51,000); partly purified Bacillus stearothermophilus pyruvate kinase, luminescence ATP production; ribose 5-phosphate activator present at AC10; Potency, µM; in the data active means potency below about 11 µM; inconclusive means mostly about 12 µM to 25 µM; inactive means weaker than that;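 the screen sought inhibitors and activators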;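 further: potency means the concentration at half of the fitted maximal effect; scaled between full activation by ribose 5 phosphate and full inhibition by luteolin; about four in five hits inhibit and the cells do not say which; series up to 57 µM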
YjeE inh: qHTS Assay for Inhibitors of YjeE | tRNA threonylcarbamoyladenosine biosynthesis protein TsaE (Escherichia coli (strain … | purified YjeE, fluorescence polarisation of a bound ADP probe | Potency, µM | actives 0.05% (n = 71,000); active = well fitted falling curve; inconclusive = weaker or top-dose-only fall, or a rising curve; inactive = flat or poorly fitted curve;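 further: top concentration of the series not given in the record; excess ADP was the control for the full effect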
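Purified YjeE (10 uM) with BODIPY Texas Red-labeled ADP probe (2 uM); compounds pin-transferred, 15 min at room temperature. Binding inhibition read as decreased fluorescence polarization; ADP titration as control.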
The depositor's hits bear a star.

Results for CO[C@H]1[C@H](O[C@H]2O[C@@H](C)[C@@H](O[C@@H]3C[C@](C)(O)[C@H](O)[C@H](C)O3)[C@@H](N(C)C)[C@@H]2O)[C@@H](CC=O)C[C@@H](C)[C@@H](O[C@H]2CC[C@H](N(C)C)[C@H](C)O2)/C=C\C=C/C[C@@H](C)OC(=O)C[C@H]1O ?
YjeE inh: inactive

Results for O=C1OC(c2ccccc2)=C/C1=C\N1CCOCC1 ?
Bst PK mod: >57; YjeE inh: inactive

Results for C=CCn1c(SCC(=O)Nc2nccs2)nnc1-c1cc2cccc(OC)c2o1 ?
Bst PK mod: >57; YjeE inh: inactive

What do the screens show for `NCCC[C@@H](CC(=O)N[C@@H]1CCNC[C@H]1C(=O)N[C@H](CC(=O)N[C@@H](CCC(=O)O)CC(=O)O)Cc1ccccc1)NC(=O)C[C@H](Cc1c[nH]c2ccccc12)NC(=O)[C@@H]1CNCC[C@H]1N`?
YjeE inh: inactive

Results for c1ccc(OCCCn2nnc(-c3cccnc3)n2)cc1 ?
Bst PK mod: >57; YjeE inh: inactive

How did c1coc(Cn2c(SCc3nc4ccccc4[nH]3)nnc2-c2cccs2)c1 do in these assays?
YjeE inh: inactive

What do the screens show for `COc1ccc(C(C)=O)cc1CN1C(=O)C(C)N(c2ccc(C)cc2)C1=O` (stereo not drawn)?
Bst PK mod: >57; YjeE inh: inactive

What do the screens show for `CC(=O)C1=C(O)C(=O)N(CCN2CCOCC2)C1c1ccccc1` (stereo not drawn)?
Bst PK mod: >57; YjeE inh: inactive

What do the screens show for `N#C/C(=C\c1ccc(O)c(O)c1)C(=O)NCCc1ccccc1`?
YjeE inh: inactive

Results for COC(=O)c1ccc(C)c(NC(=O)c2nn(C)c(=O)c3ccccc23)c1 ?
Bst PK mod: >57; YjeE inh: inactive

Results for N#Cc1ccsc1NC(=O)c1cnccn1 ?
Bst PK mod: >57; YjeE inh: inactive

Results for Clc1ccc2c(NC3CCC(N4CCCCC4)CC3)ccnc2c1 (stereo not drawn) ?
YjeE inh: inactive

How did Cc1ccc(S(=O)(=O)C(F)(F)F)cc1NC(=O)c1cccnc1 do in these assays?
Bst PK mod: >57; YjeE inh: inactive

How did CCOc1cc(S(=O)(=O)N2CCCCC2)ccc1Cl do in these assays?
Bst PK mod: >57; YjeE inh: inactive

Results for O=C(Cc1cc(=O)[nH]c(=O)[nH]1)N1CCN(C(=O)c2ccco2)CC1 ?
YjeE inh: inactive

How did CCc1ccc2c(c1)C(NC(C)=O)C(=O)N2CC (stereo not drawn) do in these assays?
YjeE inh: inactive

Results for COc1ccc(Oc2c(C)oc3c(CN(C)C)c(O)ccc3c2=O)cc1 ?
Bst PK mod: >57; YjeE inh: inactive

What do the screens show for `O=C(NCC1CCCO1)C1c2ccccc2C(=O)N1C1CCCCCCC1` (stereo not drawn)?
Bst PK mod: >57; YjeE inh: inactive

Results for CCS(=O)(=O)n1nc(-c2ccco2)nc1SC ?
Bst PK mod: >57; YjeE inh: inactive

What do the screens show for `NN(CC(=O)O)CC(=O)O`?
YjeE inh: inactive

How did O=C1Nc2ccc(S(=O)(=O)NCc3ccco3)c3cccc1c23 do in these assays?
Bst PK mod: >57; YjeE inh: inactive

How did Clc1ccc(-c2nnc3sc(-c4ccco4)nn23)c(Cl)c1 do in these assays?
Bst PK mod: >57; YjeE inh: inactive

How did COc1cccc(N2CCN(C(=O)CN(C)S(=O)(=O)c3ccc4c(c3)CCC(=O)N4)CC2)c1 do in these assays?
YjeE inh: inactive

Results for Cc1cc(NC(=O)CSc2nc(CCC3CCCC3)nc3ccccc23)no1 ?
Bst PK mod: >57; YjeE inh: inactive

What do the screens show for `CC(=O)c1cccc(N(CC(=O)N2CCOCC2)S(C)(=O)=O)c1`?
Bst PK mod: >57; YjeE inh: inactive

Results for CC1=CC(C)C(C(=O)O)C(C(=O)O)C1 (stereo not drawn) ?
YjeE inh: inactive

What do the screens show for `CC1(C)CC(NS(=O)(=O)c2ccccc2)CC(C)(C)N1`?
Bst PK mod: >57; YjeE inh: inactive

What do the screens show for `COc1ccccc1CNC(=O)C1CCCN(S(=O)(=O)c2cnc[nH]2)C1` (stereo not drawn)?
YjeE inh: inactive

Results for CC(C)CCN(C)C1CCN(S(=O)(=O)c2ccc(F)cc2)CC1 ?
YjeE inh: inactive

How did Cn1c(C(=O)NCc2ccc3c(c2)OCO3)cc2sccc21 do in these assays?
Bst PK mod: >57; YjeE inh: inactive

Results for Cn1c2ccccc2c2cnn(CC(=O)N3CCN(c4ncccn4)CC3)c(=O)c21 ?
Bst PK mod: >57; YjeE inh: inactive

Results for CCOC(=O)C1=C(C)N2C(=C(C#N)[C@@H]1c1ccc(C(=O)OC)cc1)SC[C@@]2(O)C(C)(C)C ?
Bst PK mod: >57; YjeE inh: inactive

How did COC(=O)C1C2C=CC3(CN(C4CCCC4)C(=O)C13)O2 (stereo not drawn) do in these assays?
Bst PK mod: >57; YjeE inh: inactive

What do the screens show for `CCOC(=O)N1CCC(c2cc(=O)n3[nH]c(-c4ccccc4)cc3n2)CC1`?
YjeE inh: inactive

Results for Cc1cc(C)nc(SCC(=O)Nc2ccc(N3CCOCC3)c(Cl)c2)n1 ?
Bst PK mod: >57; YjeE inh: inactive

What do the screens show for `O=C(NCCCN1CCCC1=O)c1ccc(CNS(=O)(=O)c2ccc(F)cc2)cc1`?
Bst PK mod: >57; YjeE inh: inactive

Results for Cn1cccc1C(=O)N1CCC2(CC1)CCN(c1ccccn1)CC2 ?
YjeE inh: inactive

How did CCOC(=O)C1CCCN(C(=O)c2ccc3c(c2)OCO3)C1 (stereo not drawn) do in these assays?
Bst PK mod: >57; YjeE inh: inactive

How did O=C(O)C1CCCCC1C(=O)NCCc1cccc(Cl)c1 (stereo not drawn) do in these assays?
Bst PK mod: >57; YjeE inh: inactive

Results for CCN1CCN(C(=O)C2c3cc(OC)c(OC)cc3C(=O)N3CCc4ccccc4C23)CC1 (stereo not drawn) ?
Bst PK mod: >57; YjeE inh: inactive

How did COC(=O)c1cc(Br)c(=O)n(-c2ccccc2OC)c1 do in these assays?
Bst PK mod: >57; YjeE inh: inactive

How did COC(=O)CSc1nc2ccccc2nc1SCC(=O)OC do in these assays?
Bst PK mod: >57; YjeE inh: inactive

Results for Cc1cc(C)n(-c2ccc(C(=O)Nc3nc4ccccc4s3)cc2)n1 ?
Bst PK mod: >57; YjeE inh: inactive

Results for c1cc(OCC2CO2)cc(OCC2CO2)c1 (stereo not drawn) ?
YjeE inh: inactive

Results for Cc1cccc2cc(CN(Cc3ccco3)S(=O)(=O)c3ccc4c(c3)OCCO4)c(=O)[nH]c12 ?
Bst PK mod: >57; YjeE inh: inactive

How did Cc1ccc2ncnc(NCCCN3CCOCC3)c2c1 do in these assays?
Bst PK mod: >11; YjeE inh: inactive

Results for CCCCOc1cccc(C(=O)N(Cc2ccco2)C2CCS(=O)(=O)C2)c1 (stereo not drawn) ?
Bst PK mod: >57; YjeE inh: inactive

What do the screens show for `O=C(NCc1cccc(CNC(=O)c2ccco2)c1)c1ccco1`?
YjeE inh: inactive

Results for COc1ccc(-c2cc(C(F)F)nc(-n3nc(C)cc3C)n2)cc1 ?
Bst PK mod: inactive; YjeE inh: inactive

What do the screens show for `CCOC(=O)c1cnn2c(C(F)(F)F)cc(-c3ccccc3)nc12`?
YjeE inh: inactive

What do the screens show for `CCC1(C)Cc2ccccc2-c2nc3n(c(=O)c21)CCCCC3` (stereo not drawn)?
Bst PK mod: >57; YjeE inh: inactive

How did CCCN1CCN(CCCNC(=O)c2cc3c(=O)n(C)c4ccccc4c3n2C)CC1 do in these assays?
YjeE inh: inactive

What do the screens show for `Cc1nc2nc(Cc3ccccc3)nn2c(C)c1Cl`?
Bst PK mod: >57; YjeE inh: inactive

What do the screens show for `N#CCCn1cnc2c(=S)nc[nH]c21`?
Bst PK mod: >26

How did O=C(C1CCCN(c2ncccn2)C1)N1CCc2ccccc21 (stereo not drawn) do in these assays?
Bst PK mod: >57; YjeE inh: inactive

Results for COc1ccc(CC(=O)N2CCN=C2SC)cc1 ?
YjeE inh: inactive

What do the screens show for `COCCN1CC(=O)N(c2cccc(C)c2C)C(c2ccc(Cl)cc2)C1=O` (stereo not drawn)?
Bst PK mod: >57; YjeE inh: inactive

What do the screens show for `COc1ccccc1NC(=O)C1=C(C)Nc2nnnn2C1c1ccccc1OC` (stereo not drawn)?
Bst PK mod: >57; YjeE inh: inactive

How did CCOc1ccc(OCC)c(NC(=O)C2CCN(S(=O)(=O)c3cccc4nonc34)CC2)c1 do in these assays?
Bst PK mod: >57; YjeE inh: inactive

Results for CCC(=O)OC1=C2C(=Nc3c(c(=O)n(C)c(=O)n3C)C2c2ccccc2)c2ccccc21 (stereo not drawn) ?
Bst PK mod: >26

What do the screens show for `Cc1cc(C(F)(F)F)nn1CC(=O)N1CCCCC1C` (stereo not drawn)?
Bst PK mod: >57; YjeE inh: inactive

What do the screens show for `COc1ccc(C2C(C(=O)c3sc(C)nc3C)=C(O)C(=O)N2CCN(C)C)cc1OC` (stereo not drawn)?
Bst PK mod: >57; YjeE inh: inactive

What do the screens show for `O=C(CCCCCN1C(=O)c2ccccc2C1=O)NC1CCCC1`?
Bst PK mod: >57; YjeE inh: inactive

Results for COc1ccc(NC(=O)c2nnn(Cc3cccc(F)c3)c2N)c(OC)c1 ?
YjeE inh: inactive

How did CC1CC(=O)Nc2ccccc2S1(=O)=O (stereo not drawn) do in these assays?
Bst PK mod: >57; YjeE inh: inactive

Results for CC(C)COc1ccc(-c2nnc(-c3ccco3)o2)cc1 ?
Bst PK mod: 9.5*; YjeE inh: inactive

How did CCN(CC(=O)Nc1cccc(OC)c1)C(=O)C1CCN(C(=O)Nc2ccccc2)CC1 do in these assays?
Bst PK mod: >57; YjeE inh: inactive

How did Cc1ccc2[nH]c(=O)c(-c3nc4cc(C)ccn4c3NCc3ccco3)cc2c1 do in these assays?
Bst PK mod: >57; YjeE inh: inactive

What do the screens show for `CCn1c(SCC(=O)c2c[nH]c3ccccc23)nnc1-c1cccs1`?
Bst PK mod: >57; YjeE inh: inactive

What do the screens show for `CN(C)c1ccc(CN(C(=O)C2COc3ccccc3O2)C2CCS(=O)(=O)C2)cc1` (stereo not drawn)?
Bst PK mod: inconclusive; YjeE inh: inactive

What do the screens show for `CCCC(=O)NC(C)c1nc2ccccc2n1C` (stereo not drawn)?
YjeE inh: inactive

How did O=C(Nc1cc(C(F)(F)F)ccc1Cl)C1CCN(c2nnc(-n3cccc3)s2)CC1 do in these assays?
Bst PK mod: >57; YjeE inh: inactive

Results for COc1ccc(Cl)cc1C(=O)N(Cc1nc(-c2cccc(C)c2)no1)C(C)C ?
YjeE inh: inactive

How did CCOc1ccccc1C1C(C(=O)Nc2ccc(OC)cc2)=C(C)Nc2nc(CCCO)nn21 (stereo not drawn) do in these assays?
YjeE inh: inactive

What do the screens show for `COCCN(CCOC)Cc1cc(=O)oc2cc3c(cc12)CCC3`?
Bst PK mod: >57; YjeE inh: inactive

Results for Cc1noc(C)c1C(=O)N1CCC[C@@]2(CCN(c3cccc(-c4ccccc4)c3)C2)C1 ?
YjeE inh: inactive

What do the screens show for `CCNC(=O)/N=C1/NC(=O)C(C(C)C)O1` (stereo not drawn)?
Bst PK mod: >57; YjeE inh: inactive

What do the screens show for `Cc1ccc2c(c1)N[C@H](c1ccc(C(=O)O)cc1)c1cccn1-2`?
YjeE inh: inactive

What do the screens show for `O=C(O)c1cccc(NC(=O)C2CC(=O)N(Cc3ccccc3)C2)c1` (stereo not drawn)?
Bst PK mod: >57; YjeE inh: inactive

How did OCCN(Cc1ccccc1)Cc1cccc(F)c1 do in these assays?
Bst PK mod: >57; YjeE inh: inactive

How did O=C1CC(N2CCN(c3ccccc3)CC2)C(=O)N1CCc1ccccc1 (stereo not drawn) do in these assays?
YjeE inh: inactive

Results for CCCCC(CC)CNC(=O)c1cccs1 (stereo not drawn) ?
YjeE inh: inactive

How did CC(C)C(=O)N(Cc1ccc2c(c1)OCO2)Cc1ccccn1 do in these assays?
Bst PK mod: >57; YjeE inh: inactive

How did Cn1c(NC(=O)c2cccs2)c(-c2cccs2)c(=O)c2ccccc21 do in these assays?
Bst PK mod: >57; YjeE inh: inactive

What do the screens show for `CCOC(=O)c1c(C)[nH]c(C(=O)Cn2nnc(-c3ccccc3)n2)c1C`?
Bst PK mod: >57; YjeE inh: inactive

Compounds shown so far containing a Cl atom, in the order listed:
Results for Clc1ccc2c(NC3CCC(N4CCCCC4)CC3)ccnc2c1 (stereo not drawn) ?
YjeE inh: inactive

How did CCOc1cc(S(=O)(=O)N2CCCCC2)ccc1Cl do in these assays?
Bst PK mod: >57; YjeE inh: inactive

How did Clc1ccc(-c2nnc3sc(-c4ccco4)nn23)c(Cl)c1 do in these assays?
Bst PK mod: >57; YjeE inh: inactive

Results for Cc1cc(C)nc(SCC(=O)Nc2ccc(N3CCOCC3)c(Cl)c2)n1 ?
Bst PK mod: >57; YjeE inh: inactive

How did O=C(O)C1CCCCC1C(=O)NCCc1cccc(Cl)c1 (stereo not drawn) do in these assays?
Bst PK mod: >57; YjeE inh: inactive

What do the screens show for `Cc1nc2nc(Cc3ccccc3)nn2c(C)c1Cl`?
Bst PK mod: >57; YjeE inh: inactive

What do the screens show for `COCCN1CC(=O)N(c2cccc(C)c2C)C(c2ccc(Cl)cc2)C1=O` (stereo not drawn)?
Bst PK mod: >57; YjeE inh: inactive

How did O=C(Nc1cc(C(F)(F)F)ccc1Cl)C1CCN(c2nnc(-n3cccc3)s2)CC1 do in these assays?
Bst PK mod: >57; YjeE inh: inactive

Results for COc1ccc(Cl)cc1C(=O)N(Cc1nc(-c2cccc(C)c2)no1)C(C)C ?
YjeE inh: inactive

Not all compounds are listed; the hit share may differ from the screen's.
